Screening data deposited in PubChem BioAssay by Southern Research Institute.
Mtb growth: Mycobacterium tuberculosis H37Rv growth inhibition, putative kinase inhibitor library, confirmatory dose response (AID 2842). M. tuberculosis H37Rv growth inhibition; higher % means a stronger effect; some inactives read as strong as hits. one-dose inhibition, % at 10 µg/mL; IC90 in µg/mL for titrated hits. hit rate 5.2% among 24,000;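 active means confirmed in a dose series; inconclusive means mostly over 85% at the one dose but not retested; inactive means below 85% or not confirmed; about a fifth of its hits are not listed in these tables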;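 further: bacteria incubated one week before Alamar blue readout; 0% = bacteria only wells and 100% = bacteria with high antibiotic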
* hit, by the source's call; u = inconclusive. An excerpt (hit frequency here may not be typical).

SMILES	Mtb growth
O=C(Nc1nnc(C2=COCCO2)o1)c1ccc(Cc2ccccc2)cc1	28µg/mL*
CC(=O)C1C(c2cccnc2)NC(=O)NC1(O)C(F)(F)F (configuration not stated)	-6%
COc1ccc(OC)c(NC(=O)c2oc3ccccc3c2NC(=O)CCl)c1	-4%
C/C=C\C(=O)Nc1scc2c(C(=O)OCC)nn(-c3ccc(Cl)cc3)c(=O)c12	0%
Cc1ccc(C(=O)Nc2sc3c(c2C(N)=O)CCN(C)C3)cc1C	19µg/mL*
CCc1c(C)nc(SCC(=O)NCc2ccco2)[nH]c1=O	4%
CCOc1cc(/C=C(/C#N)c2nc(-c3ccc(F)cc3)cs2)ccc1O	59%
CCOC(=O)c1oc2ccccc2c1NC(=O)COc1ccccc1F	5%
O=C(/C=C/c1ccccc1)NC(=S)Nc1ccc(S(=O)(=O)Nc2nccs2)cc1	-4%
COC(=O)c1ccc(Cn2cnc3sc(C)c(-c4ccc(Cl)cc4)c3c2=O)cc1	50%
COc1ccc(-c2nnc3c4cc5c(cc4n(Cc4ccc(C)cc4)cc2-3)OCCO5)cc1OC	68%
O=C(CN1C(=O)CC(c2ccco2)Sc2ccccc21)Nc1ccccc1 (configuration not stated)	14%

The closing four records of the part before come first, to join the parts.
SMILES	Mtb growth
O=C(/C=C/c1ccccc1)NC(=S)Nc1ccc(S(=O)(=O)Nc2nccs2)cc1	-4%
COC(=O)c1ccc(Cn2cnc3sc(C)c(-c4ccc(Cl)cc4)c3c2=O)cc1	50%
COc1ccc(-c2nnc3c4cc5c(cc4n(Cc4ccc(C)cc4)cc2-3)OCCO5)cc1OC	68%
O=C(CN1C(=O)CC(c2ccco2)Sc2ccccc21)Nc1ccccc1 (configuration not stated)	14%
CC(=O)c1cccc(NC(=O)NC2CC(=O)N(c3ccc(Cl)cc3)C2)c1 (configuration not stated)	16%
CCc1ccc(S(=O)(=O)Nc2cccc(-c3nc4cccnc4s3)c2)cc1	-11%
O=C(NNC(=O)c1cc2ccccc2oc1=O)c1ccccc1	-11%
O=C(c1ccc([N+](=O)[O-])cc1)N(Cc1ccccc1)c1nnc(C23CC4CC(CC(C4)C2)C3)s1	10%
Cc1[nH]c2ccccc2c1SCC(=O)Nc1ccccc1	8%
Cc1ccccc1NC(=O)CSc1ccnc(=O)[nH]1	-15%
COc1ccc(C(=O)NCCc2cc3cc(C)c(C)cc3[nH]c2=O)c(OC)c1	40%
N#Cc1nc(-c2ccc([N+](=O)[O-])cc2)oc1NCC1CCCO1 (configuration not stated)	-12%
COCCn1c(C)cc(O)c(C(c2cccnc2)N2CCC(C)CC2)c1=O (configuration not stated)	-20%
CCN1CCc2c(sc(NC(=O)c3cccc(N4C(=O)CCC4=O)c3)c2C(N)=O)C1	-3%
CC1=NN(CC(=O)O)c2nc3c(c(=O)n(C)c(=O)n3C)n2C1	-15%
Cc1cc(C)c(S(=O)(=O)N2CCN(C(=O)c3cccc([N+](=O)[O-])c3)CC2)c(C)c1	6%
COc1ccc(C(=O)NC2CC(=O)N(c3ccc(C)c(C)c3)C2)c(OC)c1 (configuration not stated)	-1%
CCOc1ccc(C(=O)N(Cc2ccccc2)c2nnc(C34CC5CC(CC(C5)C3)C4)s2)cc1	21%
COc1cc(NC(=O)c2c[nH]c(=O)n(-c3ccc(C)c(C)c3)c2=O)cc(OC)c1	-4%
COc1ccccc1-c1ccc2nnc(SCC(=O)Nc3ccc4c(c3)OCCO4)n2n1	10%
Nc1ncnc(NCc2ccc3c(c2)OCO3)c1[N+](=O)[O-]	-1%
Cc1ccc(C)c(NC(=O)C(=O)Nc2cc3c4c(c2)CCC(=O)N4CCC3)c1	0%
O=C(Nc1c(C(=O)Nc2cccc(F)c2)oc2ccccc12)c1ccccc1Cl	8%
Cc1cc(NC(=O)c2ccc(Cl)cc2)nc2c1c(=O)oc1ccccc12	-12%
COc1ccc2nc(-c3ccc(F)c(NC(=O)CC4CCCCC4)c3)cn2n1	3%
Cc1ccc2c(c1)c1c(n2CC(O)CN2C(=O)CNC2=O)C(=O)CCC1 (configuration not stated)	4%
Cc1[nH]c2ccccc2c1C(c1ccc2c(c1)OCO2)N1CCN(Cc2ccccc2)CC1 (configuration not stated)	0%
C#CCn1c(=NC(=O)c2nc3ccccc3s2)sc2cc(NC(C)=O)ccc21	8%
Cc1cc(NC(=O)CSc2nc3[nH]ncc3c(=O)[nH]2)no1	-5%
CCSc1nc2c(c(=O)[nH]1)C(c1cccs1)C(C(=O)OC)=C(C)N2 (configuration not stated)	4%
CN(c1ccccc1)S(=O)(=O)c1ccc(C(=O)Nc2nc(-c3cc(Cl)sc3Cl)cs2)cc1	22%
O=C(Nc1nc(-c2ccc(I)cc2)cs1)c1coc2ccccc2c1=O	-9%
O=c1c2nnn(-c3ccc(OC(F)(F)F)cc3)c2ncn1Cc1cccnc1	-7%
Cc1ccc(Cl)cc1N1CC(O)=C(c2nc3ccccc3[nH]2)C1=N	19%
O=C(NNc1nc2c(F)cccc2s1)c1ccc(S(=O)(=O)N2CCOCC2)cc1	75%
COc1cccc(NC(=O)CSc2nc(N)c(NC(=O)c3ccccc3)c(=O)[nH]2)c1	-5%
c1c2c(cc3sc(N4CCOCC4)nc13)OCO2	-1%
N#C/C(=C/c1ccc(OCC(N)=O)cc1)c1nc2ccccc2c(=O)[nH]1	-7%
CCOC(=O)c1nn(-c2ccc(Cl)cc2)c(=O)c2c(NC(=O)c3ccc(Br)cc3)scc12	2%
CC(C)(C)c1cc(Br)ccc1OCC(=O)Nc1ncn[nH]1	10%
COc1cccc(C(c2sc3ncnn3c2O)N2CCN(C(=O)c3ccco3)CC2)c1 (configuration not stated)	3%
CCOc1ccc(NC(=O)c2oc3ccccc3c2NC(=O)c2cccc([N+](=O)[O-])c2)cc1	12%
CSc1ccc2nc(Nc3ccc(Br)cc3)sc2c1	8%
Nc1cc(OC(=O)c2ccc(F)cc2)nn1S(=O)(=O)c1ccccc1	2%
Clc1ccc(CNc2nc3c(-c4cccc(Br)c4)nnn3c3ccccc23)cc1	8%
CC(CNC(=O)CCCc1nnc2c(=O)n(-c3ccc(Cl)cc3)ccn12)c1ccccc1 (configuration not stated)	-3%
COC(=O)c1c(NC(=O)Cc2cccc3ccccc23)sc2c1CC(C)(C)NC2(C)C	3.7µg/mL*
COC(=O)c1cc(N/C=C(\C#N)c2nc(-c3cccc(Br)c3)cs2)cc(C(=O)OC)c1	13%
COc1ccc2c(c1)c(=O)c(C(=O)c1ccc(F)cc1)cn2Cc1ccccc1OC	-1%
C=CCn1c(SCC(=C)C)nc2c1c(=O)[nH]c(=O)n2C	2%
COC(=O)N1CCc2c(sc(NC(=O)CCc3ccccc3)c2C(N)=O)C1	-2%
CC1CCCN(C(c2cccc(F)c2)c2sc3ncnn3c2O)C1 (configuration not stated)	-5%

Among those listed so far, 4 have a cyano group.
SMILES	Mtb growth
CCOc1cc(/C=C(/C#N)c2nc(-c3ccc(F)cc3)cs2)ccc1O	59%
N#Cc1nc(-c2ccc([N+](=O)[O-])cc2)oc1NCC1CCCO1 (configuration not stated)	-12%
N#C/C(=C/c1ccc(OCC(N)=O)cc1)c1nc2ccccc2c(=O)[nH]1	-7%
COC(=O)c1cc(N/C=C(\C#N)c2nc(-c3cccc(Br)c3)cs2)cc(C(=O)OC)c1	13%

Going on with the list:
SMILES	Mtb growth
Cc1cc(NC(=O)CSc2nc(N)c(NC(=O)c3ccc(F)cc3)c(=O)[nH]2)no1	-7%
COc1cc(-c2nnc(SCC(=O)Nc3cc(C)on3)o2)cc(OC)c1OC	82%
COc1cccc(C(=O)Nc2nnc(-c3cc(OC)c(OC)c(OC)c3)o2)c1	82%
COc1ccc(C(=O)Nc2c(N)nc(SCC(=O)NC3CCCCC3)[nH]c2=O)cc1	-9%
O=C(COc1ccc(Cl)cc1Cl)Nc1nc2c(s1)CCc1ccccc1-2	10%
Cc1ccn2c3c(c(C(=O)OC(C)C)c2c1)C(=O)c1ccccc1C3=O	u
O=C(CN1C(=O)c2ccccc2C1=O)Nc1nc(-c2ccc(I)cc2)cs1	2%
Cc1cccc(-n2nc3c(c2NC(=O)CCC2CCCCC2)CS(=O)C3)c1C (configuration not stated)	4%
Clc1cccc(N2CCN(c3ncnc4c3c(-c3ccccc3)cn4-c3cccc(Cl)c3)CC2)c1	8%
COc1ccc(NC(=O)c2oc3ccccc3c2NC(=O)Cc2cccs2)cc1OC	7%
CCOC(=O)c1nn(-c2ccccc2)c(=O)c2c(NC(=O)c3ccccc3OC)scc12	-9%
CCOc1ccc(C(=O)NCC(c2ccc3c(c2)CCN3C)N2CCCCC2)cc1 (configuration not stated)	10%

The last two compounds of the section before open the next one:
SMILES	Mtb growth
CCOC(=O)c1nn(-c2ccccc2)c(=O)c2c(NC(=O)c3ccccc3OC)scc12	-9%
CCOc1ccc(C(=O)NCC(c2ccc3c(c2)CCN3C)N2CCCCC2)cc1 (configuration not stated)	10%
CCc1nnc(NS(=O)(=O)c2ccc(NC(=O)c3cc4c(ccc5ccccc54)oc3=O)cc2)s1	53%
COC(=O)c1ccsc1NC(=O)c1nc2ccccc2s1	-6%
Cc1cc2cc(CNC(=O)NC3CCCCC3)ccc2[nH]1	8%
CCOc1ccc(C(=O)Nc2c(N)nc(SCc3ccc(Cl)cc3)[nH]c2=O)cc1	-8%
Cc1ccc(S(=O)(=O)c2cnc(SCC(=O)Nc3cccc(F)c3)[nH]c2=O)cc1	-24%
COc1cccc(-c2nc(C(N)=O)c3[nH]c(=O)n(-c4ccc(OC)cc4OC)c3n2)c1	-23%
O=C(/C=C/c1ccc(-c2nc3ccccc3s2)o1)c1ccc(-c2ccc(F)cc2)o1	-7%
Cc1ccccc1-c1nnc(NC(=O)c2ccc(-c3ccccc3)cc2)s1	14%
O=C(Nc1ncc(-c2ccccc2)s1)c1cccc(N2C(=O)CCC2=O)c1	4%
Cc1ccc(S(=O)(=O)c2nnn3c2nc(NCc2ccccc2Cl)c2ccccc23)c(C)c1	8%
O=C(CCOc1ccccc1)Nc1nnc(-c2ccccc2)o1	6.7µg/mL*
CCc1ccc(S(=O)(=O)c2cnc(SCC(=O)Nc3cccc(SC)c3)[nH]c2=O)cc1	-22%
COc1ccc(C(=O)Oc2cc(C)[nH]c(=O)c2[N+](=O)[O-])c(OC)c1	4%
Cc1cc2cc(CNC(=O)C(=O)c3c[nH]c4ccccc34)ccc2[nH]1	8.4µg/mL*
CCc1ccc(-c2csc3ncn(CC(=O)NCc4ccco4)c(=O)c23)cc1	44%
CCN1CC2=C(OC(N)=C(C#N)C2c2ccc(F)cc2)/C(=C/c2ccc(F)cc2)C1 (configuration not stated)	40%
COc1ccc(-n2ccn(CC(=O)Nc3ccc(Br)cc3F)c(=O)c2=O)cc1Cl	3%
CCOC(=O)C1CCN(C(c2ccc(C(C)C)cc2)c2sc3nc(C)nn3c2O)CC1 (configuration not stated)	-3%
Cc1ccc2cc(CCNC(=O)c3cccc(Cl)c3)c(=O)[nH]c2c1C	-6%
Cc1cc2nnc(SCC(=O)Nc3ccc(Br)cc3)n2c2ccccc12	-9%
COc1cccc(NC(=O)CSc2nnc3[nH]c(=O)c(C)c(C)n23)c1	-6%
CCOC(=O)C1=C(C)N=c2s/c(=C3\C(=O)Nc4ccccc43)c(=O)n2C1c1ccc(Br)cc1 (configuration not stated)	-2%
CC1Cc2nc(SCC(=O)Nc3ccc(F)cc3F)n(C)c(=O)c2S1 (configuration not stated)	-4%
COc1ccc(C)c2sc(NNC(=O)c3ccc(S(=O)(=O)N4CCc5ccccc5C4)cc3)nc12	1%
Cc1ccc(C(=O)c2cn(CC(=O)Nc3ccc4c(c3)OCCO4)c3cc4c(cc3c2=O)OCO4)cc1C	7%
O=C(c1ccco1)N1CCN(C(=O)c2cc3cc(Br)ccc3oc2=O)CC1	-10%
Cc1ccc(-c2nnc3ccc(SCC(=O)Nc4ccc(Br)cc4)nn23)cc1	23%
CC(=O)c1c(C)oc2ccc(NS(=O)(=O)c3ccc4c(c3)n(C)c(=O)n4C)cc12	-4%
COc1cccc(Cn2cc(C(=O)c3ccc(Cl)cc3)c(=O)c3ccccc32)c1	-2%
O=C(Cn1cc(S(=O)(=O)c2ccccc2)c(=O)c2ccccc21)Nc1ccc(F)c(Cl)c1	-4%
CCCc1cc(=O)[nH]c2nnc(SCC(=O)Nc3nnc(C)s3)n12	-6%
Fc1ccc2nc(Nc3nc(-c4cccnc4)cs3)sc2c1	9%
C=CCN1CC2=C(C1=O)C(c1ccc(OCc3ccccc3)cc1)NC(=O)N2 (configuration not stated)	-2%
O=C1CCCc2oc3ccc(NS(=O)(=O)c4ccc(Br)cc4)cc3c21	4%
COc1ccc(-n2nc3c(c2NC(=O)c2ccccc2C(F)(F)F)CS(=O)C3)cc1 (configuration not stated)	6%
COCCNC(=S)NCCc1cc2cc(C)c(C)cc2[nH]c1=O	10%
Cn1c(SCc2cccc(Cl)c2)ncc(C(=O)Nc2ccc(F)cc2)c1=O	-2%
CCOC(=O)c1cccc(N2C(=O)/C(=C\c3ccccc3F)SC2=S)c1	2%
NC(=O)CC1SC(=O)N=C1N (configuration not stated)	-15%
CSc1ccc2nc(Nc3ccccc3Cl)sc2c1	1%
CCOC(=O)c1cccc(NS(=O)(=O)c2ccc3[nH]c(=O)cc(C)c3c2)c1	-5%
Fc1ccc2nc(Nc3nc(-c4cccs4)cs3)sc2c1	68%
O=C(Nc1nnc(-c2ccc3c(c2)CCCC3)o1)C1CCCCC1	40µg/mL*
O=C(CSc1nnc2ccc(-c3cccc([N+](=O)[O-])c3)nn12)Nc1ccccc1	-4%
O=C(CCCCCn1c(=O)[nH]c2ccsc2c1=O)NCc1ccco1	-3%
CCSc1nnc(NC(=O)CSc2nc3[nH]ncc3c(=O)[nH]2)s1	-5%
COc1ccc(Cc2nnc(NCc3ccc4c(c3)OCO4)[nH]c2=O)cc1	-12%
NC(=O)c1oc2ccccc2c1NC(=O)c1ccc(C(=O)c2ccccc2)cc1	-4%
